HPGD block = blocks human HPGD enzyme activity; purified HPGD, NADH fluorescence kinetic, PGE2 substrate; 150,000 tested, 4.3% active; Potency, µM, for the others: at the top dose activity change, negative = inhibition, hits mostly inhibitors; active = well fitted inhibition curve with a large enough effect (not every such curve was filed as active); inconclusive = small, poorly fitted or top-dose-only effect, or another doubt; inactive = no such curve, though single readings can be large or run the other way;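 also: top concentration of the series not given in the record; plate controls included wells without enzyme; inactives centre near -10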
Target sequence (P15428 whole entry, looked up): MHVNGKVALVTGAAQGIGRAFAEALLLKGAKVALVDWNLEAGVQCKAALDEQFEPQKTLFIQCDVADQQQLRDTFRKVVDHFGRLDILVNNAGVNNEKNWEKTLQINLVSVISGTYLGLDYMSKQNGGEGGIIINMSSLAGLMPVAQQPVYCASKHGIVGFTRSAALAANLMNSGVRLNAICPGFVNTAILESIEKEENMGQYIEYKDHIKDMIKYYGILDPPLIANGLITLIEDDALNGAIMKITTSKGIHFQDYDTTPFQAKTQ
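20 nM HPGD preincubated 15 min at room temperature with compound in 50 mM Tris-HCl pH 8, 0.01% Tween 20. Started with 1 mM NAD+ and 30 uM prostaglandin E2; NADH fluorescence (360/450 nm) read 5 times over 30-s intervals, last minus first.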
Numbers without * were called inactive; ? = inconclusive; & = joins results of further samples. % is scaled to controls: 0 for no effect and ±100 for the full control effect; potency is read from the fitted curve at half-maximal effect. This is a subset; count on the stated rates, not on these rows.

HPGD block,canonical_smiles
-14%,Cc1cc(O)c2c(-c3ccccc3)cc(=O)oc2c1
-8%,CCCc1cc2c(cc1NS(=O)(=O)c1ccc(CCNC(C)=O)cc1)OCO2
-1%,CC(C)(C)c1ccc(-c2nnc(SCc3ccc(Cl)cc3)n2-c2cccc(C(F)(F)F)c2)cc1
?,Cc1ccc(-n2[nH]c(C)c(C=Nc3ccc(S(=O)(=O)Nc4nccs4)cc3)c2=O)cc1C
?,CC(C)N(C(=O)CSc1ncnc2sc(-c3ccccc3)cc12)C(C)C
-15%,Nc1c(OCC(=O)O)ccc2cc(S(=O)(=O)O)ccc12
-27%,CCOC(=O)c1c(C)oc2c1c(C(c1ccncc1)N1CCOCC1)c(O)c1ccccc12 (stereo not drawn)
-11%,Cn1cc(Br)c(C(=O)NC2CCCCC2)n1
-1%,CCN(CC)C(=O)N1CCC(NC(=O)c2ccc(C(C)(C)C)cc2)CC1
-1%,CC(NC(=O)c1ccc(Cl)cc1)C(=O)NC1=NCCS1 (stereo not drawn)

The closing 2 records of the part before open the next one:
HPGD block,canonical_smiles
-1%,CCN(CC)C(=O)N1CCC(NC(=O)c2ccc(C(C)(C)C)cc2)CC1
-1%,CC(NC(=O)c1ccc(Cl)cc1)C(=O)NC1=NCCS1 (stereo not drawn)
-26%,CCn1c(SCC(=O)Nc2cc(C)on2)nc2sc3c(c2c1=O)CCCC3
-2%,CCCn1c(C)nc2c(NC3CCCCC3)nc(C)nc21
?,O=C(Nc1nnc(SCc2ccccc2)s1)c1cc2c(s1)CCCC2
-13%,CCN(C(=O)CSc1nnc2ccccn12)c1c(N)n(Cc2ccccc2)c(=O)[nH]c1=O
-10%,CCOc1ccccc1OCC(=O)O
-13%,O=[N+]([O-])c1ccc(N2CCCCCC2)c(S(=O)(=O)N2CCCCC2)c1
11µM*,Cc1c(Br)c([N+](=O)[O-])nn1CCCC(=O)Nc1sc2c(c1C(N)=O)CCC(C)C2 (stereo not drawn)
-8%,CCOC(=O)c1cnn2c(C(F)F)cc(C3CC3)nc12
-15%,CCOC(=O)C1C(=O)NC(c2ccccc2)=NC1c1ccc(Cl)cc1 (stereo not drawn)
22µM*,Nc1cc(Cl)ccc1Oc1ccc(Cl)cc1
-7%,C/C(=N\NC(=O)c1ccn(C)n1)c1cccc(NC(=O)c2ccc(C)s2)c1
?,O=C(O)CCc1ccc(-c2ccc(Cl)cc2)o1
-11%,CCCCNC(=S)NCc1ccc2[nH]c(C)cc2c1
-10%,CC(C)(C)c1nc2ccccc2c2nnc(SCC(=O)Nc3nc4ccccc4s3)n12
-22%,CCNC(=O)CN1c2cccc3cccc(c23)S1(=O)=O
?,COC(=O)C1=C(N)c2ccccc2C1(C#N)c1ccccc1 (stereo not drawn)
-7%,COc1ccc(NC(=O)c2ccc(COCC(F)(F)C(F)F)cc2)cc1
-11%,CCOC(=O)CC(=O)CSc1nc2ccc(C)cc2cc1C#N
-6%,C=CCN(CC=C)S(=O)(=O)c1ccc2nc(NC(=O)C3CCCO3)sc2c1 (stereo not drawn)
-16%,COC(=O)N1CCC2(CCN(Cc3ccc(C#N)cc3)CC2)CC1
4%,CC(Sc1nc(-c2ccccc2)cs1)C(=O)Nc1ccc(Cl)cn1 (stereo not drawn)
-8%,O=C1CCC2CCCCC2(O)O1 (stereo not drawn)
-8%,CCOC(=O)NC(Nc1sc2c(c1C(N)=O)CCCC2)(C(=O)OCC)C(F)(F)F (stereo not drawn)
-4%,O=C(NCc1ccc(F)cc1)C1CC(=O)N(CCc2ccccc2)C1 (stereo not drawn)
-22%,c1ccc(Nc2ncnc3ccc(-c4cccnc4)cc23)cc1
?,Cc1cc(-c2n[nH]c(=S)n2Cc2ccccc2)cs1
-23%,CCCCOC(=O)CSc1nnc(-c2ccc(Cl)cc2Cl)o1
-5%,O=C1c2ccccc2S(=O)(=O)c2cc(C(=O)N(c3ccccn3)c3ccccn3)ccc21
-4%,Cn1c2c(c(=O)n(C)c1=O)CN(Cc1ccc3c(c1)OCO3)CN2
-24%,COc1ccccc1/C=C/C(=O)Nc1ccc2c(c1)CCC2
?,CCN(CC)S(=O)(=O)c1ccc2[nH]cc(C(=O)NCCc3ccccc3)c(=O)c2c1
-6%,COC(=O)C1=NN(C(=O)c2ccc(C)cc2)C(O)(c2ccc(Cl)cc2)C1 (stereo not drawn)
20µM*,CSc1nsc(SC)c1C(=O)NCCNS(=O)(=O)c1ccc(C)cc1
-2%,COCCCn1c(SCC(=O)Nc2cccc(C)n2)nnc1-c1ccco1
-1%,NC(=O)c1ncc(C(F)(F)F)cc1Oc1cccc(C(F)(F)F)c1
-10%,CCc1sc(C(=O)NCc2cc(C)n(C)n2)cc1Br
-4%&2%&-3%,O=C(O)c1cccnc1
-7%&-5%,COC(=O)[C@@]1(Cc2ccc(OC)cc2)[C@@H]2C(=CC(=O)[C@H]2CC(=O)C(=O)N2CCCC2)CN1C(=O)c1ccccc1
-15%,CCCCn1c(SCC(=O)Nc2ccccc2C(F)(F)F)nc2ccsc2c1=O
-15%,COc1ccc2oc(=O)c(-c3csc(Nc4ccc(O)cc4)n3)cc2c1

Of the compounds above, these contain a nitro group on carbon.
HPGD block,canonical_smiles
-13%,O=[N+]([O-])c1ccc(N2CCCCCC2)c(S(=O)(=O)N2CCCCC2)c1
11µM*,Cc1c(Br)c([N+](=O)[O-])nn1CCCC(=O)Nc1sc2c(c1C(N)=O)CCC(C)C2 (stereo not drawn)

(listing goes on)
HPGD block,canonical_smiles
-6%,Cc1ccc(S(=O)(=O)N2CCC(=O)N(C(COCc3ccccc3)Cc3ccccc3)CC2)cc1 (stereo not drawn)
-4%,O=C(Nc1cccc(F)c1)N1CCCC2(CCN(S(=O)(=O)c3ccccc3)CC2)C1
-11%,COC(=O)c1sc(NC(=O)c2cc3c(s2)CCCC3)nc1C
-6%,Cc1cc(C(=O)NN=C2CCCCC2)c2ccccc2n1
-12%,Cn1cc(/C=N/NC(=O)c2cccc([N+](=O)[O-])c2)c2ccccc21
-15%,Cc1cc(C)nc(SCC(=O)Nc2ncc(Cc3cccc(Cl)c3Cl)s2)n1
-13%,CCOc1cc(/C=C2\SC(=S)N(Nc3ccccc3)C2=O)ccc1O
-6%,O=C1CCC(=O)N1CN(C(=O)c1ccco1)c1ccc(Cl)c(Cl)c1
-14%,Cc1ccc(C(=O)Nc2sc(C(=O)N(C)C)c(C)c2C#N)cc1
-4%,N#CCCn1ncn(-c2ccccc2)c1=S
-23%,COc1ccc(-c2cc(C(F)(F)F)nc(SCCC(=O)Nc3cc(C)on3)n2)cc1
-19%,O=C(CSc1ccsc1[N+](=O)[O-])N1CCN(c2ccc(Cl)cc2)CC1
?,COc1ccccc1OCC(O)Cn1nc(C)cc1C (stereo not drawn)
-4%,O=C(NNC(=O)C1CC1c1ccccc1)c1cccc([N+](=O)[O-])c1 (stereo not drawn)
-17%,CC(C)Oc1ccc(Cn2c(=O)sc3ccccc32)cc1
-1%,COc1ccc(C2NC(=O)c3ccccc3O2)cc1OC (stereo not drawn)
-11%,COc1cc(/C=C(/C#N)C(=O)NCCc2c[nH]c3ccccc23)ccc1OCc1ccccc1F
?,CCCCC(=O)Nc1cc(N(C)C)nc2ccccc12
-20%,C/C=C/c1ccc(OC(C)[C@@H](O)c2ccc(O)c(OC)c2)c(OC)c1 (stereo partly drawn)
?,CCOc1cc2[nH]c(=O)n(CCCCC(=O)N3CCCCCC3)c(=O)c2cc1OCC

An excerpt of these results, tab-delimited:
molecule	HPGD block
CCCCNC(=S)NCc1ccc2[nH]c(C)cc2c1	-11%
CCOC(=O)c1cnn2c(C(F)F)cc(C3CC3)nc12	-8%
CC(NC(=O)c1ccc(Cl)cc1)C(=O)NC1=NCCS1 (stereo not drawn)	-1%
CC(Sc1nc(-c2ccccc2)cs1)C(=O)Nc1ccc(Cl)cn1 (stereo not drawn)	4%
CCNC(=O)CN1c2cccc3cccc(c23)S1(=O)=O	-22%

Later entries.
HPGD block,canonical_smiles
-7%,CCOC(=O)CN1CC23C=CC(O2)C(C(=O)NCc2ccc(F)cc2)C3C1=O (stereo not drawn)
-9%,O=C(CNC1=NCCC1)c1ccc(Cl)cc1
-4%,Cc1cccc(OCc2nnc(SCC(=O)Nc3cccc(C(=O)N4CCOCC4)c3)o2)c1C
-6%,CC(=O)c1cccc(NC(=O)C2CCN(S(=O)(=O)c3ccc(F)cc3)CC2)c1
?,CCC1(c2cccc(Cl)c2)NC(=O)N(Cc2cc(C(=O)OC)c(C)o2)C1=O (stereo not drawn)
-12%,CCC(Sc1nc(C)cc(=O)[nH]1)C(=O)Nc1nnc(C)s1 (stereo not drawn)
?,COc1cc2[nH]c3c(=O)n(CCN(C(C)C)C(C)C)cnc3c2cc1OC
-9%,O=C(NCc1ccc2c(c1)OCO2)c1ccncc1
-8%,O=C(c1ccco1)N1CCN(CCCCOc2ccc(F)cc2)CC1
-9%,Oc1ccc(CNc2ccccc2F)c2cccnc12
-10%,COc1ccc(C2=[N+]([O-])C(C)(C)N(O)C2(C)C)cc1
-3%,CC(=O)NC1=C(N(C)C2CCS(=O)(=O)C2)C(=O)c2ccccc2C1=O (stereo not drawn)
-1%,COCCCNS(=O)(=O)c1ccc(S(=O)(=O)N2CCCC2)cc1
-16%,O=C(CO)N/N=C/c1cccc(Cl)c1Cl
-31%,O=C(CSc1nc2ccccc2s1)Nc1cc(S(=O)(=O)N2CCOCC2)ccc1Cl
?,CCOC(=O)CCSc1nc2c(c(C(F)(F)F)c1C#N)CCC2
14µM*,CC1(C)Cc2nc3sc4c(SCC(=O)NCc5ccco5)ncnc4c3cc2CO1
-15%,CCOC(=O)c1c(C)[nH]c(C(=O)COC(=O)C2(C)CC2(Cl)Cl)c1C (stereo not drawn)
3%,CCCN(C(=O)Cc1nc(N)n[nH]1)C1(C(=O)Nc2c(C)cccc2C)CCCCC1
-1%,C=CCN(c1ccc(C(=O)Nc2cc(C)cc(C)c2)cc1)S(C)(=O)=O
-13%,O=C1C2C3C=CC(CC3)C2C(=O)N1c1ccc2c(c1)OCO2 (stereo not drawn)
32µM*,NC(=O)c1c(N)sc2c1CCCC2
1%,CCNC(=S)N1CCN(C(=O)c2ccco2)CC1
-18%,CCc1ccc(NC2Nc3cc(C)nn3S2)cc1 (stereo not drawn)
-3%,O=C(Nc1ccc(N2CCCCC2)cc1)c1ccc(F)cc1
?,O=[N+]([O-])c1cccc(/C([O-])=C(/C(=S)Nc2cccc3ccccc23)[n+]2ccccc2)c1
?,Cc1ccc(-c2cc3nn(-c4ccccc4)c(N)c3c(=O)o2)cc1
-10%,CC(Sc1nc(N2CCOCC2)nc(N2CCOCC2)n1)C(=O)Nc1ccccc1 (stereo not drawn)
-21%,Cc1cccc(N2CCN(C(=S)NCCc3ccccc3)CC2)c1C
18µM*,CCOc1ccc(C(=O)NCC(C)C)cc1

4 compounds out of the list above, sorted by their value in HPGD block, low to high.
HPGD block,canonical_smiles
-18%,CCc1ccc(NC2Nc3cc(C)nn3S2)cc1 (stereo not drawn)
-13%,O=C1C2C3C=CC(CC3)C2C(=O)N1c1ccc2c(c1)OCO2 (stereo not drawn)
-10%,CC(Sc1nc(N2CCOCC2)nc(N2CCOCC2)n1)C(=O)Nc1ccccc1 (stereo not drawn)
1%,CCNC(=S)N1CCN(C(=O)c2ccco2)CC1

(list continues)
HPGD block,canonical_smiles
18µM*,COC(=O)[C@@]1(Cc2ccc(F)cc2)[C@H]2c3cc(C(=O)N(C)C)n(Cc4ccc(C)o4)c3C[C@H]2CN1C(=O)c1ccccc1
-9%,CC1(C)Cc2c(ccc3ccccc23)C(c2cc3ccccc3oc2=O)=N1
?,Cc1ccc2cc(CN(C(=O)c3cccnc3)C(C)C)c(=O)[nH]c2c1
-9%,CC1(C)C(=O)OC(c2cccn2-c2ccc([N+](=O)[O-])cc2)C2(CCCCC2)C1=O (stereo not drawn)
-9%,CC12C(=O)N(c3nccs3)C(=O)C1C1C=CC2C1 (stereo not drawn)
-5%,CC(C)(C)n1ncc2c(=O)n(CC(=O)NCc3ccc(F)cc3)cnc21
-5%,CC(C)Oc1ccccc1C1CC(=O)Nc2cc3c(cc21)OCO3 (stereo not drawn)
0%,O=C(Nc1ccc2c(c1)OCO2)C1CC(c2ccc(Cl)cc2)=NO1 (stereo not drawn)
7%,O=C(NC1CC2CCCC(C1)N2CC(=O)N1CCCc2ccccc21)C1CCCCC1 (stereo not drawn)
-9%,NS(=O)(=O)c1cc2c(cc1Cl)N[C@H](Cc1ccccc1)NS2(=O)=O
-8%,C[C@@H]1CC[C@H]2C(=O)N3[C@@H](CC[C@@H](C)[C@@H]3c3ccc(Br)cc3)C(=O)N2[C@H]1c1ccc(Br)cc1
1%,COc1ccc(-n2c(=O)c3ccccc3n(CC(=O)NC3CCCCC3)c2=O)cc1
-14%,COc1ccc(C(C)=O)cc1COC(=O)c1ccc2c(c1)OCO2
-4%,O=C(COC(=O)c1ccc(Br)o1)Nc1nc2ccccc2s1
?,NC(=O)C[n+]1cccc2ccccc21
-9%,COc1ccc(CC(=O)NC(C)c2nnc(SCc3nc4ccccc4c(=O)[nH]3)n2C)cc1 (stereo not drawn)
-17%,C[C@H]1C2=C3C(CC[C@H]4C(OCc5ccc(F)cc5C(F)(F)F)OC[C@](C)([C@@H]34)N(C(=O)OC(C)(C)C)C2)C(CO)C1CO (stereo partly drawn)
-8%,Cc1cc(C)c(C)c(S(=O)(=O)NCc2cccnc2)c1C
-17%,Cc1cc2oc(=O)cc(Cn3ccnc3)c2cc1C
-15%,CC(C)(C)NC(=O)CN(C(=O)Cn1nnc(-c2ccccc2F)n1)c1cccc2c1CCCC2
